Screens: PubChem BioAssay, Broad Institute
DUX4 inh: DUX4-mediated transcription inhibition | 293T-iDUX4 ZSCAN4-Gaussia luciferase reporter, 24 h; hits give low values | activity change, negative = inhibition, % (no concentration beside the values) | hit rate 0.8% among 37,000 | AID 1224904;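 active = -10% or lower and over 25 points stronger than a control reporter; inconclusive = -10% or lower with a smaller gap; inactive = above -10%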;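 also: 0% = median of neutral control wells and -100% = median of positive control wells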
DUX4 inh difference: second read-out of DUX4 inh, no call of its own (marks repeat the call); Gaussia minus Italica difference, %; measured here: selective DUX4 reporter inhibition;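 worked out from the two reporters; negative = selective loss of the DUX4 reporter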
DUX4 inh control: second read-out of DUX4 inh, no call of its own (marks repeat the call); activity change, negative = inhibition, %; measured here: Italica tet-on control reporter;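 0 = neutral control and -100 = positive control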
* marks the source's active call; other numbers are inactive results; ? = inconclusive; nt = no result given.

SMILES | DUX4 inh | DUX4 inh difference | DUX4 inh control
CCC(=O)NC[C@@H]1[C@H](c2ccc(C3=CCCC3)cc2)[C@H](CO)N1C(=O)C1CC1 | 3 | -3 | 5.5
O=C(Nc1ccccc1)N1C[C@H]2[C@@H](c3ccccc31)[C@H](CO)N2CC1CCCC1 | -2 | -5 | 2.8
O=C(CN1CCOCC1)NCC[C@H]1CC[C@@H](NC(=O)c2ccc3c(c2)OCO3)[C@@H](CO)O1 | 6 | 4 | 2.0
COc1cccc(-c2ccc([C@H]3[C@H]4CN(S(=O)(=O)c5cccs5)CCCCN4[C@H]3CO)cc2)c1 | ? | nt | nt
C[C@@H]1CCCCO[C@H](CN(C)Cc2ccc(C(=O)O)cc2)[C@@H](C)CN([C@H](C)CO)C(=O)c2cc(N(C)C)ccc2O1 | 0 | -1 | 0.6
OC[C@@H]1[C@H](c2ccc(C#Cc3ccccc3F)cc2)[C@H]2CN(CC3CCOCC3)CCCCN12 | -21* | -29* | 8.5*
CCNC(=O)[C@H]1[C@H](CO)[C@H]2Cn3c(ccc(C4=CCCC4)c3=O)[C@H]2N1CC1CC1 | 5 | 0 | 5.1
COc1ccc(CNC(=O)N(C)C[C@@H]2OCc3ccccc3-c3c(n(C)c4ccccc34)C(=O)N([C@H](C)CO)C[C@@H]2C)cc1 | -4 | -2 | -2.2
O=C(C[C@@H]1CC[C@@H]2[C@H](COC[C@@H](O)CN2Cc2nccs2)O1)NCc1ccc(Cl)cc1 | 5 | 2 | 3.6
COCCNC(=O)C[C@@H]1CC[C@H]2[C@H](COc3ccc(NC(=O)c4cnccn4)cc3C(=O)N2C)O1 | -1 | -6 | 5.4
COCC(=O)N1CCCCN2[C@H](CO)[C@@H](c3ccc(-c4ccc(F)cc4)cc3)[C@H]2C1 | 20 | 11 | 9.3
OC[C@H]1[C@@H](c2ccccc2)C2(CN(CCC(F)(F)F)C2)N1Cc1ccncc1 | 0 | 2 | -2.1
C[C@@H]1CN([C@@H](C)CO)C(=O)CCCn2cc(nn2)CO[C@@H]1CN(C)C(=O)NC1CCCCC1 | 6 | -1 | 6.8
C[C@H](NC(=O)N(C)C[C@@H]1OCc2ccccc2-c2c(n(C)c3ccccc23)C(=O)N([C@H](C)CO)C[C@H]1C)c1ccccc1 | -1 | 5 | -6.0
CCC(=O)N(C)C[C@@H]1[C@H](c2ccc(-c3cccnc3)cc2)[C@H](CO)N1C(C)=O | 1 | -3 | 4.0
Cc1noc(C)c1S(=O)(=O)N(C)C[C@H]1OCc2ccccc2-c2ccccc2C(=O)N([C@H](C)CO)C[C@H]1C | 2 | 3 | -1.0
C[C@H](CO)N1C[C@H](C)[C@@H](CN(C)C(=O)Nc2cccc3ccccc23)OCc2cn(nn2)CCCC1=O | -5 | -9 | 4.4
COc1ccccc1C#Cc1ccc2c(c1)[C@H]1[C@H](CCN1C(=O)c1ccc(F)cc1)[C@H](CO)N2 | ? | nt | nt
C[C@H]1CN([C@@H](C)CO)C(=O)c2cc(-c3cccc(C#N)c3)cnc2O[C@@H]1CN(C)C(=O)C1CCOCC1 | -1 | -1 | 0.0
CN(C)CC#Cc1ccc([C@H]2[C@@H](CO)N3C(=O)CN(C(=O)c4cccnc4)C[C@@H]23)cc1 | 8 | -1 | 8.5
COc1ccccc1C#Cc1ccc2c(c1)[C@@H]1[C@@H](CCN1S(=O)(=O)c1cccc(C)c1)[C@H](CO)N2 | 0 | 8 | -7.5
CCCNC(=O)C[C@@H]1CC[C@@H]2[C@H](COc3ccc(NC(=O)c4cc(F)cc(F)c4)cc3C(=O)N2C)O1 | -4 | -4 | 0.5
O=C(C[C@H]1CC[C@@H]2[C@H](COC[C@H](O)CN2C(=O)c2ccccc2F)O1)NCc1ccc(-c2ccccc2)cc1 | -3 | 3 | -6.1
C[C@H]1CN([C@@H](C)CO)C(=O)c2c(c3ccccc3n2C)-c2ccccc2CO[C@@H]1CN(C)Cc1ccc(O)cc1 | ? | nt | nt
C/C=C/c1ccc([C@H]2[C@H](CO)N(S(C)(=O)=O)[C@H]2CNCC2CCC2)cc1 | -5 | -2 | -2.9
O=C(NC1CCCC1)N1CC(=O)N2[C@H](CO)[C@@H](c3ccc(-c4cccnc4)cc3)[C@@H]2C1 | 9 | 1 | 7.8
COc1ccccc1C#Cc1ccc2c(c1)[C@H]1[C@H](CCN1C(=O)c1ccccc1)[C@H](CO)N2 | ? | nt | nt
C[C@@H]1CN([C@H](C)CO)C(=O)CCCn2nncc2CO[C@@H]1CN(C)C(=O)Nc1ccc(C(F)(F)F)cc1 | 0 | 2 | -2.0
O=C(C[C@H]1C[C@H]2c3cc(NC(=O)C4CCC4)ccc3O[C@H]2[C@@H](CO)O1)NCc1ccccc1F | 0 | -5 | 4.9
COc1ccc(NC(=O)Nc2ccc3c(c2)C(=O)N([C@H](C)CO)C[C@H](C)[C@H](CN(C)S(=O)(=O)c2c(C)noc2C)OCCCC[C@H](C)O3)cc1 | 0 | 2 | -1.9

Record cards, from the list above. Order of screens: DUX4 inh, DUX4 inh difference, DUX4 inh control
Listed for C[C@@H]1CN([C@H](C)CO)C(=O)CCCn2nncc2CO[C@@H]1CN(C)C(=O)Nc1ccc(C(F)(F)F)cc1 → 0, 2, -2.0
Listed for O=C(C[C@H]1C[C@H]2c3cc(NC(=O)C4CCC4)ccc3O[C@H]2[C@@H](CO)O1)NCc1ccccc1F → 0, -5, 4.9
Listed for CCCNC(=O)C[C@@H]1CC[C@@H]2[C@H](COc3ccc(NC(=O)c4cc(F)cc(F)c4)cc3C(=O)N2C)O1 → -4, -4, 0.5
Listed for C[C@H]1CN([C@@H](C)CO)C(=O)c2c(c3ccccc3n2C)-c2ccccc2CO[C@@H]1CN(C)Cc1ccc(O)cc1 → ?, nt, nt
Listed for COc1ccc(NC(=O)Nc2ccc3c(c2)C(=O)N([C@H](C)CO)C[C@H](C)[C@H](CN(C)S(=O)(=O)c2c(C)noc2C)OCCCC[C@H](C)O3)cc1 → 0, 2, -1.9

Additional compounds follow:
SMILES | DUX4 inh | DUX4 inh difference | DUX4 inh control
CS(=O)(=O)Nc1ccc2c(c1)[C@H]1C[C@@H](CC(=O)O)O[C@@H](CO)[C@H]1O2 | 5 | 4 | 1.3
CCC(=O)NC[C@@H]1[C@H](c2ccc(-c3cccc(F)c3)cc2)[C@H](CO)N1C(=O)CC | -1 | -2 | 0.8
C[C@H](CO)N1C[C@H](C)[C@@H](CN(C)Cc2ccncc2)OCc2cnnn2CCCC1=O | 4 | 2 | 1.8
CCCNC(=O)Nc1ccc2c(c1)OC[C@H](C)N(CC1CCCC1)C[C@H](C)[C@H](OC)CN(C)C2=O | -6 | -4 | -2.7
N#C[C@H]1[C@@H](c2ccc(-c3ccccc3F)cc2)[C@H](CO)N1C(=O)C1CC1 | -4 | -3 | -0.1
COc1ccc(NC(=O)Nc2ccc3c(c2)C(=O)N([C@H](C)CO)C[C@H](C)[C@H](CN(C)S(=O)(=O)c2cccs2)OCCCC[C@@H](C)O3)cc1 | 0 | -1 | 0.5
COc1cccc(S(=O)(=O)Nc2ccc3c(c2)[C@H]2C[C@H](CC(=O)NCC(F)(F)F)O[C@H](CO)[C@H]2O3)c1 | 2 | -2 | 3.9
O=C(C[C@H]1C[C@@H]2c3cc(NC(=O)CC4CC4)ccc3O[C@@H]2[C@@H](CO)O1)NCc1ccc(Cl)cc1 | 1 | 8 | -6.4
O=C(C[C@@H]1CC[C@@H]2[C@H](COC[C@@H](O)CN2C(=O)Nc2cccc(Cl)c2)O1)N1CCCCC1 | 3 | -5 | 7.7
O=S(=O)(c1ccc(F)cc1)N1CCCCN2[C@H](C1)[C@H](c1ccc(C#CC3CC3)cc1)[C@@H]2CO | ? | nt | nt
OC[C@@H]1[C@H]2c3ccccc3NC[C@H]2N1CC1CCOCC1 | 0 | 0 | -0.4
C[C@@H](NC(=O)C[C@H]1CC[C@H](NC(=O)Cc2ccccn2)[C@@H](CO)O1)c1ccccc1 | 0 | 1 | -1.5
COCC(=O)N1C[C@@H]2[C@H](c3ccccc31)[C@H](CO)N2C(=O)NC(C)C | -2 | -5 | 3.3
CCS(=O)(=O)N1[C@H](C#N)[C@@H](c2ccc(C#CC(C)C)cc2)[C@H]1CO | -1 | -6 | 5.4
CO[C@@H]1CN(C)C(=O)c2ccc(NC(C)=O)cc2OC[C@H](C)N(C(=O)C2CCOCC2)C[C@H]1C | 0 | -3 | 2.8
CO[C@H]1CN(C)C(=O)c2ccc(NC(=O)NC(C)C)cc2OC[C@H](C)N(S(C)(=O)=O)C[C@H]1C | -5 | 0 | -4.8
CCCC#Cc1ccc([C@H]2[C@@H](CO)N3C(=O)CN(C(=O)c4ccccn4)C[C@@H]23)cc1 | -3 | -2 | -0.6
C[C@H](CO)N1C[C@H](C)[C@@H](CN(C)Cc2ccc(-c3ccccc3)cc2)OCc2ccccc2-c2c(n(C)c3ccccc23)C1=O | -7 | -7 | -0.4
Cc1ccc(S(=O)(=O)Nc2ccc3c(c2)C(=O)N([C@H](C)CO)C[C@H](C)[C@@H](CN(C)C(=O)NC2CCCCC2)OCCCC[C@H](C)O3)cc1 | 3 | -2 | 4.4
COc1ccccc1NC(=O)N[C@H]1CC[C@H](CCNC(=O)c2ccc3c(c2)OCO3)O[C@@H]1CO | -3 | -3 | 0.6

Looked up by structure from the list above, two records:
SMILES | DUX4 inh | DUX4 inh difference | DUX4 inh control
COCC(=O)N1C[C@@H]2[C@H](c3ccccc31)[C@H](CO)N2C(=O)NC(C)C | -2 | -5 | 3.3
OC[C@@H]1[C@H]2c3ccccc3NC[C@H]2N1CC1CCOCC1 | 0 | 0 | -0.4

(next part)
SMILES | DUX4 inh | DUX4 inh difference | DUX4 inh control
COc1ccccc1CN(C)C[C@@H]1OCc2ccccc2-c2ccccc2C(=O)N([C@H](C)CO)C[C@@H]1C | 1 | -14 | 15
C[C@@H]1CN([C@H](C)CO)C(=O)c2cc(N(C)C)ccc2O[C@@H](C)CCCCO[C@H]1CN(C)C(=O)Nc1ccc(C(F)(F)F)cc1 | 0 | -4 | 3.9
N#C[C@H]1[C@H](c2ccccc2C2=CCCCC2)[C@@H](CO)N1C(=O)c1cccc(F)c1 | ? | nt | nt
C[C@H]1CN([C@@H](C)CO)C(=O)c2cc(NC(=O)Nc3cccc4ccccc34)ccc2O[C@H]1CN(C)S(=O)(=O)c1cccs1 | -2 | 0 | -1.2
COc1ccccc1CNC(=O)C[C@@H]1C[C@H]2c3cc(NC(=O)Nc4ccc(C(F)(F)F)cc4)ccc3O[C@H]2[C@@H](CO)O1 | ? | nt | nt
CCC(=O)N1C[C@H](C)[C@@H](OC)CN(C)C(=O)c2cc(NC(=O)C3CC3)ccc2OC[C@H]1C | 0 | -4 | 3.7
O=C(CN1CCOCC1)N1CC[C@@H]2[C@@H](CO)Nc3ccc(-c4ccccc4)cc3[C@@H]21 | 18 | 19 | -1.5
COc1cccc(-c2ccccc2[C@H]2[C@@H](C#N)N(C(=O)c3ccccn3)[C@@H]2CO)c1 | 8 | 9 | -1.4
O=C(N[C@@H]1C=C[C@H](CC(=O)N2CCN(c3ccccc3)CC2)O[C@@H]1CO)c1ccccc1 | -5 | -5 | -0.2
COc1ccccc1CNC(=O)C[C@H]1C[C@H]2c3cc(NS(=O)(=O)c4ccc(F)cc4)ccc3O[C@H]2[C@@H](CO)O1 | -1 | -1 | -0.1
CN1CCN(C(=O)[C@H]2[C@H](CO)[C@H]3Cn4c(cccc4=O)[C@@H]2N3Cc2ccncc2)CC1 | 0 | -2 | 1.4
CNC[C@H]1Oc2cc(Br)ccc2S(=O)(=O)N([C@@H](C)CO)C[C@H]1C | -1 | -2 | 0.9
CC(C)(C)[S@@](=O)N1Cc2cc(C(=O)NC3CCC3)nc(-c3cccc(-c4ccccc4F)c3)c2[C@H]1CCO | -1 | 1 | -1.5
O=C(c1ccc(F)cc1)N1CC(=O)N2[C@H](C1)[C@H](c1ccc(-c3cccnc3)cc1)[C@@H]2CO | 8 | 7 | 0.7
C[C@@H]1CN([C@H](C)CO)C(=O)c2c(c3ccccc3n2C)-c2ccccc2CO[C@H]1CN(C)C(=O)Nc1ccc2c(c1)OCO2 | 2 | -1 | 2.8
CCN1[C@@H]2c3ccc(-c4cccc(F)c4)c(=O)n3C[C@H]1[C@H](CO)[C@H]2C(=O)N(C)C | 8 | 6 | 2.2
CN1C(=O)c2cc(NC(=O)Cc3cccs3)ccc2OC[C@H]2O[C@@H](CC(=O)NCc3ccc(-c4ccccc4)cc3)CC[C@@H]21 | 3 | 2 | 0.8
COCC(=O)N1CC[C@@H]2[C@@H](CO)Nc3ccc(-c4ccc(C#N)cc4)cc3[C@@H]21 | 23 | 11 | 12
CO[C@@H]1CN(C)C(=O)c2cc(NS(=O)(=O)c3ccccc3)ccc2OC[C@H](C)N(Cc2cccnc2)C[C@@H]1C | 1 | -2 | 3.5
O=C(C1CCOCC1)N1C[C@H]2[C@@H](c3ccccc31)[C@@H](CO)N2C(=O)Cc1ccccn1 | 0 | 0 | 0.1
CO[C@H]1CC[C@H]2CCN(C)C(=O)[C@H](C)[C@@H](OC)CN(C)C(=O)c3cc(C#N)ccc3OC[C@@H]1O2 | -1 | 1 | -2.4
COc1cccc(NC(=O)N[C@H]2C=C[C@@H](CC(=O)NCc3ccncn3)O[C@H]2CO)c1 | 1 | 1 | 0.5

Arranged by length of the SMILES (low to high): some entries from above.
SMILES | DUX4 inh | DUX4 inh difference | DUX4 inh control
CNC[C@H]1Oc2cc(Br)ccc2S(=O)(=O)N([C@@H](C)CO)C[C@H]1C | -1 | -2 | 0.9
COc1cccc(NC(=O)N[C@H]2C=C[C@@H](CC(=O)NCc3ccncn3)O[C@H]2CO)c1 | 1 | 1 | 0.5
COCC(=O)N1CC[C@@H]2[C@@H](CO)Nc3ccc(-c4ccc(C#N)cc4)cc3[C@@H]21 | 23 | 11 | 12
CCN1[C@@H]2c3ccc(-c4cccc(F)c4)c(=O)n3C[C@H]1[C@H](CO)[C@H]2C(=O)N(C)C | 8 | 6 | 2.2
C[C@@H]1CN([C@H](C)CO)C(=O)c2c(c3ccccc3n2C)-c2ccccc2CO[C@H]1CN(C)C(=O)Nc1ccc2c(c1)OCO2 | 2 | -1 | 2.8

Only part of the results is shown. The share of hits here may be higher or lower than overall.
